GIRK2 act: activators of human GIRK2 potassium channels; G protein-activated inward rectifier potassium channel 2 (Homo sapiens), P48051; HEK293-GIRK2 thallium flux, Thallos fluorescence; calls only for hits at 25 µM; 0.05% of 63,000 active; AID 1259325, 2017;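 active means among the strongest 0.2% of first-round signals and kept after retests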;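 further: first round at about 10 µM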
Target sequence (P48051 whole entry, looked up): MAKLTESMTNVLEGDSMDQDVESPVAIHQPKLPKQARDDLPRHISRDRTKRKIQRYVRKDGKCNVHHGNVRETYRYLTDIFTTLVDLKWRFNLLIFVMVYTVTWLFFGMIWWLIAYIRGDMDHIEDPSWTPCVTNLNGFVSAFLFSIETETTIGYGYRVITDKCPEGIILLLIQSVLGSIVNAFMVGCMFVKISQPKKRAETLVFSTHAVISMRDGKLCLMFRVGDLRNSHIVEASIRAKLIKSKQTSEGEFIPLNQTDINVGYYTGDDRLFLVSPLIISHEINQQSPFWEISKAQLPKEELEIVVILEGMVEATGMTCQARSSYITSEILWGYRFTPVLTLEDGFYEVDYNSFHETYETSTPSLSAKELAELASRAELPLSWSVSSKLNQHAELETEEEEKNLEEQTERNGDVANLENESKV
Calls only; i = inactive. Only part of the results is shown (hit frequency here may not be typical).

structure	GIRK2 act
CC(=O)c1ccc(NC(=O)C(C)Cn2nc(C)c(C)c2C)cc1 (centres undefined)	i
O=C(CSCc1ccccc1)N1CCC(Oc2ncccc2Br)CC1	i
CCOc1ccccc1CNC(=O)c1sccc1S(=O)(=O)N(C)c1ccc(Cl)cc1	i
CCCCC(=O)NC1CCN(CCOC)CC1	i
COc1ccc(-c2cc3c(=O)n(CC(=O)Nc4ccc5c(c4)OCCO5)ccn3n2)cc1	i
CCOc1ccc2nc(N3CCCCC3)sc2c1	i
C[C@H]1O[C@H](O[C@H]2[C@H](O)[C@@H](O)[C@@H](O[C@H]3[C@H](O)[C@@H](O)C(O)O[C@@H]3CO)O[C@@H]2CO)[C@H](O)[C@@H](O)[C@@H]1N[C@H]1C=C(CO)[C@@H](O)[C@H](O)[C@H]1O (some centres undefined)	i
CC1Oc2ccc(-c3csc(NC(=O)COc4ccccc4Cl)n3)cc2N(C)C1=O (centres undefined)	i
CCOc1ccccc1C(=O)N1CCN(Cc2nc(C(C)(C)C)cs2)CC1	i
O=C(NCCN1CCN(c2ccccc2)CC1)Nc1cccs1	i
COCCNS(=O)(=O)c1ccc(-c2ccc(Cl)cc2)cc1	i
CC(=O)NC1=NN(C(C)=O)C2(S1)C(=O)N(CCc1ccccc1)c1c(C)cccc12 (centres undefined)	i
Cn1c(=O)[nH]c2c(C(=O)N3CCc4ccccc4C3)snc2c1=O	i
CCc1[nH]nc(N)c1-c1ccc(F)cc1	i
COc1cccc(OCCn2c(CN3CCCCC3)nc3ccccc32)c1	i
O=S(=O)(/C=C/c1ccccc1)NCCc1nc(C2CC2)cc(C(F)(F)F)n1	i
O=c1ccn(-c2ccc(Cl)cc2)nc1-c1nc(-c2ccc(OC(F)(F)F)cc2)no1	i
CC(C)C(=O)Nc1ccc(S(=O)(=O)Nc2ccc3c(c2)C(=O)N(C)CCO3)cc1	i
COc1ccc(OCC(=O)Nc2ccc(N3CCCC3=O)c(OC)c2)cc1	i
O=C(Nc1ccc(-c2ccn[nH]2)cc1)c1cccc(-n2cnnn2)c1	i
CCC1(c2ccccc2)CCC(=O)N(CC(=O)Nc2c(C)cc(C)cc2C)C1=O (centres undefined)	i
CN1CCN(c2cc(OCCNC(=O)Nc3ccc(OC(F)(F)F)cc3)ncn2)CC1	i
O=C(Nc1ccc(F)c(Cl)c1)c1cn(CC(O)c2ccccc2)nn1 (centres undefined)	i
COc1ccc(-c2cc3c(=O)n(CC(=O)NCc4ccco4)ccn3n2)cc1OC	i
Cc1cc(C(=O)Nc2nnc(-c3cc(C)oc3C)o2)no1	i
COc1cccc(N2CCN(C(=O)C3CSCCC(=O)N3)CC2)c1 (centres undefined)	i
CCOc1ccccc1-n1nnnc1-c1ccc2ccccc2n1	i
COc1ccc(NC(=O)c2ccc3nn(CC(=O)NCc4ccc(C)cc4)c(=O)n3c2)cc1	i
Cn1cc(OCc2ccc(F)cc2)c(=O)cc1C(=O)NC1CCCCCC1	i
COc1cccc(-c2noc(CCn3nc(-c4cccc(Cl)c4)ccc3=O)n2)c1OC	i
Cc1ccc(-n2nnc(C(=O)Nc3ccc4c(c3)OCO4)c2-c2cccnc2)cc1C	i
CCc1ccc(N2CC(O)Cn3c2nc2c3c(=O)n(C)c(=O)n2C)cc1 (centres undefined)	i
CCN(CC)S(=O)(=O)c1ccc(C(=O)NCCn2ncccc2=O)cc1	i
COC(=O)c1ccc2c(=O)n(CCC(=O)NCCc3ccc(Cl)cc3)c(=S)[nH]c2c1	i
COc1ccc(Cl)cc1NC(=O)Nc1nc(-c2ccccn2)cs1	i
COc1ccc(Nc2nnc(Cc3ccc(C)cc3)c(=O)[nH]2)cc1OC	i
COc1ccccc1Oc1ccc(S(=O)(=O)N2CCN(c3ccccc3F)CC2)cc1	i
Cc1ccc2c(Nc3ccc4c(c3)OCO4)c(C(=O)N3CCSCC3)cnc2n1	i
Cc1nnc(NC(=O)c2cc(-c3ccncc3)nc3ccccc23)s1	i
CCCCCNC(=O)[C@@H]1CCCN2C(=O)CC[C@H](NC(=O)[C@H](Cc3ccc(OP(=O)(O)O)cc3)NC(C)=O)C(=O)N12	i
Cn1nc(-c2cccs2)cc1C(=O)N1CCN(c2cccc(Cl)c2Cl)CC1	i
Cc1nnsc1C(=O)N1CCC(Cn2cccn2)CC1	i
O=C(NCC(O)C1CCCCC1)C1(c2cccs2)CCCC1 (centres undefined)	i
CCOc1ccccc1-c1nc(Cn2nnc(C(=O)Nc3ccc(C)cc3C)c2C)c(C)o1	i
O=C(NCCN1CCN(C(=O)NCc2ccc(F)cc2)CC1)c1ccc2c(c1)OCO2	i
COc1ccc(CNC(=O)c2cnc3c(c(C)nn3-c3ccccc3)c2Cl)cc1	i
CC(C(=O)Nc1onc2c1CSC2)n1nc(-c2ccccc2)ccc1=O (centres undefined)	i
O=C(c1cccc(Br)c1)N1CCN(CCn2ccnc2-c2ccccc2)CC1	i
COc1ccc(CCC(=O)N2CCN(c3ncnc4c3nnn4-c3ccccc3)CC2)cc1	i
Cc1cc(SCC(=O)Nc2ccccc2Br)nc(-c2ccc(F)cc2)n1	i

Rewritten with each value named: entries from further up
> COc1ccc(CNC(=O)c2cnc3c(c(C)nn3-c3ccccc3)c2Cl)cc1
  GIRK2 act = i

> CC(C(=O)Nc1onc2c1CSC2)n1nc(-c2ccccc2)ccc1=O (centres undefined)
  GIRK2 act = i

> O=C(c1cccc(Br)c1)N1CCN(CCn2ccnc2-c2ccccc2)CC1
  GIRK2 act = i

> COc1ccc(CCC(=O)N2CCN(c3ncnc4c3nnn4-c3ccccc3)CC2)cc1
  GIRK2 act = i

Later entries:
structure	GIRK2 act
COc1ccc2nc(-c3ccc(C)c(NC(=O)CC4CCCCC4)c3)cn2n1	i
Cc1ncn(CC(=O)Nc2ccccc2-c2ccc(=O)[nH]n2)c(=O)c1C	i
CCc1ccccc1Sc1nccn2c(=O)n(CC(=O)NCc3ccc(OC)cc3)nc12	i
Cn1nnnc1SCC(=O)NCCn1cnc(-c2ccc(F)cc2)cc1=O	i
CC(C)Oc1ccc(C(=O)N2CC(c3nc(-c4cccc(C(F)(F)F)c4)no3)C2)cc1	i
COc1ccccc1NC(=O)Nc1cnc(N(C)C)nc1	i
CCOC(=O)C1CCN(c2ncc(S(=O)(=O)c3ccc(CC)cc3)c(N)n2)CC1	i
COc1ccc(-c2cc3ccc(OC(C)=O)cc3oc2=O)c(OC)c1	i
O=C(Nc1nccs1)C1CCN(C(=O)c2cc(-c3ccccc3)on2)CC1	i
CCCCc1ccc(NC(=O)CSc2nccc(N3CCCC3)n2)cc1	i
O=C(NCc1cccs1)N1CCC(CSc2ccccn2)CC1	i
C=CCn1c(=S)[nH]c2cc(C(=O)NCCCN3CCOCC3)ccc2c1=O	i
COc1ccc(OC)c(C(=O)CC2OC(=O)c3c2ccc(OC)c3OC)c1 (centres undefined)	i
COCC(=O)Nc1cc(=O)n(C)c(=O)n1C	i
CNS(=O)(=O)c1c(C)cc(C)c(N(C)S(=O)(=O)c2ccccc2)c1C	i
Cc1ccccc1C(=O)NC1CCN(C(=O)c2cc(-c3cccs3)[nH]n2)CC1	i
COC(=O)c1ccc(NC(=O)C(=O)NCc2ccccc2Cl)cc1	i
O=C(Nc1cnc(N2CCN(c3ccccc3)CC2)nc1)c1cccc(F)c1	i
COc1ccccc1NC(=O)Cn1cc(S(=O)(=O)N2CCCC2)ccc1=O	i
Cc1cccc(N2CCN(CCNC(=O)CCc3nnc4n(Cc5ccccc5)c(=O)c5ccccc5n34)CC2)c1C	i
COc1cccc(C(=O)NCc2n[nH]c(=O)c3ccccc23)c1	i
COc1nn(C)cc1C(=O)Nc1ccc(C(=O)N2CCC(C(N)=O)CC2)cc1	i
COc1cc(OC)cc(-c2noc(-c3sccc3S(=O)(=O)N(C)c3ccc(C)cc3)n2)c1	i
COc1ccc(NC(C)=O)cc1NC(=O)Cc1cc(=O)oc2cc(C)ccc12	i
CC1(C)CC[C@@]2(C(=O)O[C@@H]3O[C@H](CO)[C@@H](O)[C@H](O)[C@H]3O)C(C1)C1=CCC3[C@@]4(C)CC[C@@H](O[C@@H]5O[C@H](C(=O)O)[C@@H](O[C@@H]6OC[C@@H](O)[C@H](O)[C@H]6O)[C@H](O)[C@H]5O)C(C)(C)C4CC[C@@]3(C)[C@]1(C)C[C@H]2O (some centres undefined)	i
CCOc1cc(/C=C(\C#N)c2nc(-c3ccc4c(c3)OCO4)cs2)ccc1OC(C)C	i
O=C(Cn1nc2c(c1NC(=O)c1cc(-c3ccccc3)on1)CSC2)NCc1ccco1	i
Nc1c(C(=O)c2cccc(C#CCN3CCCCC3)c2)cnn1-c1ccc(F)cc1	i
O=C(NCc1ccccc1Cl)C1CCN(c2ncccc2S(=O)(=O)N2CCCCC2)CC1	i
COc1nn(C)cc1C(=O)N1CCC(c2nnc(-c3ccco3)o2)CC1	i
COc1ccc2c(c1)c1nc(SCc3c(C)noc3C)n(C)c(=O)c1n2C	i
CCSc1ccccc1C(=O)Nc1cccc2ccc(OC)nc12	i
COc1cccc(-n2cc(C(=O)OCc3ccccn3)c3ccccc3c2=O)c1	i
Cc1cc(C)nc(Nc2nc(C(=O)Nc3nc(CC(N)=O)cs3)cs2)n1	i
COc1ccccc1OCCn1c(Cc2cccs2)nc2ccccc21	i
CCC(C)NCC(O)COc1ccc(C)cc1C (centres undefined)	i
Cn1c(=O)n(CC(=O)O)c(=O)c2c1nc1n2CCCN1Cc1ccccc1	i
O=C(CCS(=O)(=O)Cc1ccccc1)N1CCCc2ccccc21	i
O=C(Cc1cc(=O)[nH]c(SCc2cccc(Cl)c2)n1)Nc1cccc(Cl)c1	i
O=C(CSC1=NNC2C3CC(c4ccc(F)cc4)NN3C=CN12)N1CCCCC1 (centres undefined)	i
Cc1ccc(NC(=O)c2cc(=O)c(OCc3ccc(F)cc3)c[nH]2)cc1Cl	i
CC(C)N(C(=O)Cn1c(C2CC(=O)N(Cc3ccccc3)C2)nc2ccccc21)C(C)C (centres undefined)	i
CCc1ccc2c(c1)C(C)(C)C1(/C=C/c3ccco3)NC(=O)CCN21 (centres undefined)	i
O=C(NCCn1nc(-c2ccco2)ccc1=O)C1COCC(=O)N1Cc1ccccc1 (centres undefined)	i
O=C(COc1ccc(Br)cc1)Nc1nonc1-c1ccccc1	i
COc1cccc(C2C(C(=O)c3cc4ccccc4o3)=C(O)C(=O)N2c2cc(C)on2)c1 (centres undefined)	i
O=C(c1snc2c(=O)n(Cc3ccccc3)c(=O)[nH]c12)N1CCc2ccccc2C1	i
O=c1c(-c2ccc(Cl)cc2)coc2c3c(ccc12)OCN(CCCN1CCOCC1)C3	i
COc1ccc(F)cc1S(=O)(=O)Nc1ccc2c(c1)N(S(C)(=O)=O)CCC2	i
Cc1ccc(NC(=O)C(=O)NCCCn2ccnc2)cc1F	i

Additional compounds follow.
structure	GIRK2 act
Cc1ccc(CNC(=O)c2cccc(-n3ccnc3SCC(=O)Nc3ccc(C#N)cc3)c2)o1	i
C=CCNC(=O)Nc1nc2c(F)cc(F)cc2s1	i
CSc1ccccc1C(=O)Nc1cc(-c2cccs2)nn1-c1nc(C)c(C)c(=O)[nH]1	i
Cc1nnc(C2CCN(CC(=O)Nc3ccc(Br)cc3)CC2)s1	i
Cc1cccc(C)c1NC(=O)CN(C)c1nc2c(F)cccc2s1	i
COC(=O)c1ccc(S(=O)(=O)Nc2ccc3c(c2)C(=O)N2CCCCC2CCO3)cc1 (centres undefined)	i
COc1cccc(-c2cc(C(=O)N3CCN(CCn4ccnc4)CC3)[nH]n2)c1	i
Cn1nnn(-c2ccc(NC(=O)C3CC(=O)N(c4ccc(F)cc4)C3)cc2)c1=O (centres undefined)	i
NC(=O)c1ccccc1OCC#CCNC(=O)Cn1c(=O)oc2ccccc21	i
CC(=O)N1CCc2c(sc(NC(=O)c3ccc(C)cc3)c2-c2nc3ccccc3s2)C1	i
CCOc1ccc(N(C)S(=O)(=O)c2ccsc2C(=O)NCCc2ccc(Cl)cc2)cc1	i
COc1ccc(Oc2c(C(F)(F)F)oc3cc(OC(=O)N4CCOCC4)ccc3c2=O)cc1	i
O=C(CN1C(=O)C2(SCC(=O)N2c2ccc(F)cc2)c2ccccc21)NCc1ccco1 (centres undefined)	i
CCC(C(=O)NC(C)C(=O)Nc1nc2ccccc2[nH]1)c1ccccc1 (centres undefined)	i
C=C(C)[C@@H]1CC[C@]2(C(=O)O)CC[C@]3(C)C(CCC4[C@]5(C)C(CC[C@]43C)C(C)(C)[C@@H](O)[C@@H]5C(=O)O)C12 (some centres undefined)	i
N#C/C(C(=O)N1CCCCC1)=C1/Nc2ccccc2S1	i
CC(O)Cn1c(NCc2ccco2)nc2c1c(=O)[nH]c(=O)n2C (centres undefined)	i
Cc1ccc2c(Nc3ccc(OC(F)(F)F)cc3)c(C(=O)N3CCSCC3)cnc2n1	i
O=C(CCN1C(=O)c2ccccc2S1(=O)=O)N1CCN(c2cccc(Cl)c2)CC1	i
Cn1cccc1C(CNC(=O)C(=O)Nc1ccc2c(c1)OCO2)N1CCc2ccccc2C1 (centres undefined)	i
Cc1ccc(S(=O)(=O)N2CCCCCC2)cc1C	i

Arranged by molecular weight (lowest first): 3 of the compounds above
structure	GIRK2 act
CC(O)Cn1c(NCc2ccco2)nc2c1c(=O)[nH]c(=O)n2C (centres undefined)	i
Cc1nnc(C2CCN(CC(=O)Nc3ccc(Br)cc3)CC2)s1	i
COC(=O)c1ccc(S(=O)(=O)Nc2ccc3c(c2)C(=O)N2CCCCC2CCO3)cc1 (centres undefined)	i

Screens: PubChem BioAssay, Vanderbilt University
